T cruzi inh: T. cruzi replication inhibition; 300,000 compounds, 1.4% hits; inhibition, % (concentration not given with the values); T. cruzi beta-gal in NIH3T3, luminescence, 90 h;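 active = mean inhibition across valid replicates above about 55%, limit read from the data; inconclusive = mean below that limit but half or more replicates reach it; inactive = mean below it, under half of replicates reach it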;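 also: signal also drops with host cell toxicity which is not excluded here; 0% = plate median of DMSO wells and 100% = zero luminescence signal; higher percent means less beta-gal luminescence so fewer parasites; stock transfer was 50 nL into about 50 µL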
Beta apoptosis: blocks beta cell apoptosis; INS-1E cytokine-induced death, ATP luminescence, 48 h; percent of positive-control rescue, neutral wells zero; protection from apoptosis, % (test concentration not listed); 300,000 compounds, 0.8% hits; AID 435005;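 active = all replicates at 75% or more, or half of them and the mean; inconclusive = half reach 75% but not the mean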;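 also: 0% = cytokine-treated negative control wells and 100% = positive control rescue; higher means more ATP so stronger rescue from cytokine killing; wells of about 40 µL received 100 nL stock; the first replicate is given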
UCH37 inh: human UCH37 deubiquitinating enzyme inhibition | Q9Y5K5 | purified proteasome/UCH37, Ub-AMC cleavage fluorescence | inhibition, % (test concentration not listed) | 330,000 compounds, 0.33% hits;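 active = mean of two replicates above 20%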;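 also: 0% = compound-free wells with enzyme and 100% = wells lacking proteasome; stock transfer was 100 nL into about 20 µL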
Target sequence (Q9Y5K5 whole entry, looked up): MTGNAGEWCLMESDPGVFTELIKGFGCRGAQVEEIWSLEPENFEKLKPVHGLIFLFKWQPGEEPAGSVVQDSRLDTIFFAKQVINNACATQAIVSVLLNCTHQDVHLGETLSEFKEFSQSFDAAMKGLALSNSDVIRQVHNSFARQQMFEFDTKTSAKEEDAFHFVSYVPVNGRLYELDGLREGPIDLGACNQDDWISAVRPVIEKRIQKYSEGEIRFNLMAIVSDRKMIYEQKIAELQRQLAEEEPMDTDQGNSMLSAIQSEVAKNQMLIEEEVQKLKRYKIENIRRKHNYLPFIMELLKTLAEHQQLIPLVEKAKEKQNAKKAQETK
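Material: Human UCH37 enzyme supplied as purified proteasome complex | Schedule: 30 min compound-proteasome preincubation then 25 min substrate reaction, room temperature | Detection: AMC fluorescence from Ub-AMC cleavage, excitation 355 nm, emission 460 nm | Benchmarks: Wells without proteasome as full block, compound-free enzyme plus substrate as uninhibited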
RanGTP-Impb inh: inhibitors of RanGTP-importin-beta interaction, primary screen, biochemical, FRET, CFP-Ran, YFP-importin-beta, homogeneous. cell-free CFP-Ran/YFP-importin-beta FRET ratio. inhibition, % (test concentration not listed). 300,000 compounds, 1.1% hits. AID 2216;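 active = most replicates above 15%; inconclusive = exactly half above 15%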;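 also: 0% = DMSO wells and 100% = Ran loaded with GDP instead of GTP; wells of about 40 µL received 100 nL stock; the first replicate is given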
Calb FLC: affects C. albicans growth with fluconazole; C. albicans CaCi-2 (fluconazole-resistant clinical isolate) + fluconazole, Alamar Blue growth, 48 h; growth inhibition, % (test concentration not listed); 300,000 compounds, 0.57% hits;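 active = most replicates above 75%; inconclusive = exactly half above 75%; inactive = most below 75%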;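 also: all wells also contain fluconazole at 8 µg/ml as a sub-toxic cotreatment; 0% = median of DMSO wells and 100% = median of geldanamycin control wells; wells of about 8 µL received 7.5 nL stock; the first replicate is given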
Bfl-1 A1 inh: inhibitors of the anti-apoptotic protein A1, read as caspase activation. MEF A1-2A-BIM cells, Caspase-Glo 3/7 luminescence, 3 h; percent of clofoctol response, vehicle zero. caspase activation, % (test concentration not listed). 330,000 compounds, 0.066% hits;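 active = over half of replicate activation scores above 10%, or exactly half above 10 with the replicate mean above 10; inconclusive = replicate mean below 10 yet half the replicates above 10; inactive = over half of replicates below 10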;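 also: wells of about 30 µL received 50 nL stock; many hits fall short of the cut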
B2AR ag: activates human beta-2 adrenergic receptor causing internalization; P07550; Am2.2-beta2AR cells, FAP receptor internalization, flow cytometry; reference of the scale not given here; response, % (concentration not given with the values); 340,000 compounds, 0.43% hits; AID 504454;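 active = response above a set limit, near 3 SD of response in nonfluorescent compounds, cut at about 42% in these data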;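 also: stock transfer was 100 nL into about 11 µL; a reference agonist was the positive control; negative values mostly stem from fluorescent compounds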
Target sequence (P07550 whole entry, looked up): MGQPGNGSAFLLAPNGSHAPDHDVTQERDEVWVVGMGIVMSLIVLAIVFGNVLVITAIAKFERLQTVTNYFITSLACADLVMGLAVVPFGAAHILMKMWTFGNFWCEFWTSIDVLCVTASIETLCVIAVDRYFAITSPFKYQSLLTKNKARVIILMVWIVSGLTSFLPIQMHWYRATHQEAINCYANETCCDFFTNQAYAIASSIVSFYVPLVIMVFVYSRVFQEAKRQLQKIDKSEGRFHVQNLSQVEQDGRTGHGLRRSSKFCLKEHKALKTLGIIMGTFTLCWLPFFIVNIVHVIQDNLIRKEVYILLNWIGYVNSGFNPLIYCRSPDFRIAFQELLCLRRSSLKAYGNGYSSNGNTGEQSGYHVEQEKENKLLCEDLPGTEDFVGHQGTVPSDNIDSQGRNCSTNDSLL
LANA-H2A inh: blocks KSHV LANA binding to histone H2A/H2B; Q9QR71; cell-free LANA-H2A/H2B peptide, fluorescence polarization; inhibition, % (no concentration beside the values); 320,000 compounds, 0.6% hits; in the data active = inhibition mostly above about 10%, no sharp cut-off; inactive = mostly below about 6.7%;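 also: stock transfer was 7.5 nL into about 10 µL; 0% = median of vehicle wells and 100% = median of positive control wells; one replicate is shown; the record names a cut of 25% in any replicate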
* = called active by the depositor; ? = inconclusive; . = not tested or not shown.

Screens in order: T cruzi inh	Beta apoptosis	UCH37 inh	RanGTP-Impb inh	Calb FLC	Bfl-1 A1 inh	B2AR ag	LANA-H2A inh
[1] O=C(COC(=O)/C=C/c1nc2ccccc2s1)Nc1cccc2ccccc12
    -36.7	-10.0	-0.9	1.6	-6.2	0.2	-0.4	-0.7
[2] COc1ccc(Br)cc1CNC(=O)C1CCCN(c2nc3ccccc3o2)C1 (configuration not stated)
    18.3	4.2	-1.9	5.2	-6.2	0.5	-5.7	-0.1
[3] COc1ccc(NC(=O)Nc2cccc3c2O[C@@H](CN(C)S(=O)(=O)c2cn(C)cn2)[C@@H](C)CN([C@H](C)CO)C3=O)cc1
    .	-0.1	-1.2	.	.	0.0	-1.2	0.6
[4] CCOC(=O)c1c(NC(=O)c2c(Br)cnn2C)c(C#N)nn1-c1ccccc1
    9.6	-1.8	-5.6	-1.4	-8.0	-0.9	2.7	-0.6
[5] COc1ccccc1N(CCC#N)C(=O)CSc1nc(-c2ccccc2)cn1N
    2.7	-15.8	4.7	0.3	-9.1	0.1	3.4	3.7
[6] COc1cc2ccccc2cc1C(=O)NC(=S)Nc1ccc(C(=O)O)cc1
    -10.8	9.3	-4.2	-0.9	-5.9	-0.8	9.5	4.3
[7] CCCOc1cc(CC(=O)NCc2ccco2)ccc1OC
    7.1	-6.2	0.8	5.8	4.8	-1.4	1.8	-4.4
[8] Cc1ccccc1OCC(O)CNC1CCC(NCC(O)COc2ccccc2C)CC1 (configuration not stated)
    51.1	112.7*	.	?	10.0	-0.6	40.8	-0.8
[9] C=CCNc1nc(Cl)nc(Nc2ccc([N+](=O)[O-])cc2)n1
    -2.7	4.5	4.6	2.8	13.4	0.4	17.2	1.9
[10] CCOCC(=O)Nc1cc(C(=O)Nc2cc(C)cc(C)c2)ccc1Cl
    15.1	9.9	3.6	1.9	11.9	0.3	.	-1.4
[11] CCCCC1C2=C(CC(C)(C)CC2=O)OC2=C1C(=O)CC(C)(C)C2
    33.1	2.5	0.7	2.5	7.8	0.9	-13.2	5.1
[12] CC(C)NC(=S)N(CCc1ccncc1)C(C)C
    -7.8	-5.8	1.5	2.0	5.8	-0.3	6.6	5.0
[13] COC(=O)c1ccc(COC(=O)c2[nH]c(C)c(C(C)=O)c2C)o1
    -18.5	-13.3	5.5	-1.4	4.6	0.0	5.7	-4.8
[14] O=C(O)COc1ccccc1O
    -6.2	1.8	2.2	5.3	-11.7	0.2	13.8	-1.0
[15] CCOc1ccc2oc(C(=O)OCC(=O)NC(=O)NC3CCCC3)c(C)c2c1
    -28.2	-8.1	-18.5	1.7	-11.9	-0.7	2.3	-7.3
[16] CCOC(=O)N1CCN(Cc2nc3cc(NC(C)=O)ccc3n2C)CC1
    -7.4	-5.2	-0.8	0.9	-8.4	-0.4	-5.1	4.6
[17] CCn1c(SCCC#N)nnc1-c1ccncc1
    -5.8	-2.3	0.8	-1.1	-4.5	-0.3	-5.4	2.3
[18] COc1cccc(OCCCCN2CCCCC2)c1
    23.4	-1.6	1.7	3.1	-3.1	1.6	-1.4	6.6
[19] Cc1ccc2sc(NNC(=O)C3=COCCO3)nc2c1C
    -18.4	-5.6	-1.6	-0.1	-18.6	0.7	-0.2	-2.1
[20] CCN(Cc1ccccc1)C(=O)COC(=O)c1c(C)nsc1NC
    .	-1.9	1.2	.	.	-2.0	1.4	2.0
[21] CCOC(=O)c1nnc(-c2ccccc2)nc1Oc1ccccc1Cl
    -4.6	-7.9	4.4	3.9	5.0	0.2	-0.5	-3.3
[22] Cc1cccc(C)c1NC(=O)CNC(=O)C1CC(=O)N(Cc2ccccc2)C1 (configuration not stated)
    -4.7	-5.2	6.1	3.0	-3.5	0.2	3.1	.
[23] CC(C)Nc1nc(NC(C)C)nc(Oc2ccc(=O)n(C)n2)n1
    -31.8	0.2	1.5	3.3	37.8	0.0	2.3	-2.7
[24] CC1CCN(C(=O)c2[nH]cnc2C(=O)N[C@H](C)c2ccccc2)CC1
    .	-4.4	1.9	.	.	0.2	3.3	-1.8
[25] CN(CCC1CCOCC1)C(=O)CC1C(=O)NCCN1Cc1c(F)cccc1Cl (configuration not stated)
    0.9	.	-17.5	-0.5	0.8	0.3	1.4	40.1*
[26] CN(CC(=O)NCc1ccc(F)cc1)S(=O)(=O)c1ccc2c(c1)c(=O)n(C)c(=O)n2C
    -2.2	2.0	1.2	-7.1	-0.6	-0.4	-5.0	-1.1
[27] O=C(Nc1nncs1)c1cc(-c2ccncc2)nc2ccc(Cl)cc12
    5.8	5.3	-6.5	-0.4	-0.1	1.8	8.7	7.2
[28] CCOc1ccccc1NC(=O)Nc1ccsc1C(=O)OC
    -7.0	0.6	3.5	1.7	-1.7	0.1	-5.7	0.1
[29] CCCc1cc(=O)oc2cc(C)cc(OCC(=O)N3CCC(C(N)=O)CC3)c12
    -5.2	-1.0	-75.8	5.8	1.1	-0.6	5.5	1.2
[30] COc1ccc(NC(=O)C2CCCN(S(=O)(=O)c3ccc4[nH]c(=O)ccc4c3)C2)cc1OC (configuration not stated)
    -6.6	-2.5	-3.2	3.8	20.1	0.4	-2.5	-1.3
[31] COc1ccc(-c2nc(CS(=O)CC(=O)NCC3CCCO3)c(C)o2)cc1 (configuration not stated)
    -2.9	-9.1	3.1	3.2	-2.2	-1.0	1.0	3.9
[32] O=C(CSc1ccccc1)NN1C(=O)c2ccccc2C1=O
    -13.5	-13.2	2.3	-0.8	-6.4	-0.2	-3.7	3.3
[33] COc1ccc(CNC(=O)C2CC(c3ccccc3[N+](=O)[O-])=NO2)cc1 (configuration not stated)
    -8.5	-1.3	3.5	2.9	1.4	-1.0	-3.4	-4.1
[34] COC(=O)/C(=C/c1ccco1)NC(=O)c1ccccc1
    1.1	0.0	8.3	5.1	-1.1	-1.0	6.1	-6.3
[35] Cc1ccc(OCc2cc(C(=O)NCCn3cccn3)no2)cc1C
    22.6	-5.7	5.9	8.2	2.9	0.6	-1.6	1.7
[36] O=C(Nc1ccccc1C(=O)NC(Cc1ccccc1)C(=O)NC1CCCCC1)c1ccccc1 (configuration not stated)
    21.9	-8.3	-8.8	1.2	-2.5	-0.1	0.3	3.0
[37] O=C(Nc1cccc(F)c1)c1cc(S(=O)(=O)N2CCC(C(=O)O)CC2)ccc1F
    -16.3	-0.4	2.7	7.6	-1.8	0.4	15.0	2.5
[38] COc1cccc(NC(=O)Cc2nc(-c3ccccc3)sc2-c2ccc(C)cc2)c1
    38.3	-0.8	2.4	-3.3	-1.8	0.1	-3.4	-5.8
[39] COc1cc(/C=N/NC(=O)C2=NNC(=O)C2C)ccc1O (configuration not stated)
    -7.3	3.4	.	?	-9.6	-2.5	7.1	-0.4
[40] O=C(NCCCNC(=O)c1c(F)cccc1F)c1c(F)cccc1F
    -6.6	.	4.8	-1.0	-3.5	0.1	4.2	-6.4
[41] Cc1ccc(Cn2c(CN3CCOCC3)nc3c2c(=O)[nH]c(=O)n3C)cc1
    -10.7	-7.3	6.4	-5.1	-16.9	-1.0	3.2	3.7
[42] Cc1ccccc1-n1nc(-c2cccnc2)cc1C(=O)N/N=C/c1ccncc1
    -6.8	-4.7	.	3.4	12.4	0.3	6.1	-6.1
[43] Cc1ccc(C(=O)NCC2CCCN2S(=O)(=O)c2cccs2)cc1C (configuration not stated)
    2.5	-0.1	-0.5	1.6	-7.1	0.3	-0.6	2.2
[44] CCOC(=O)C(=O)Nc1nc(-c2ccccc2)c(CC)s1
    14.0	0.5	2.3	1.2	9.5	0.5	3.9	6.3
[45] Cc1ccc(OCCCCn2c(CO)nc3ccccc32)cc1
    12.2	-2.7	4.0	-3.9	-1.9	0.3	-5.6	.
[46] O=C(Nc1cccc(Cl)c1)Nc1nc(-c2ccccc2)cs1
    ?	9.0	.	4.4	-19.2	-0.3	-1.2	6.1
[47] CCOC(=O)CSc1nnc(NC(=O)CN2CCN(C=O)CC2)s1
    -0.6	-8.9	3.9	-0.1	-0.5	1.0	0.1	-1.2
[48] CCOC(=O)c1cnc(Nc2nc3ccccc3o2)nc1C
    -17.4	9.5	0.5	1.6	-5.6	-9.6	1.3	-0.8
[49] COc1cc(C(=O)OCC(=O)Nc2sccc2C(N)=O)cc(OC)c1OC
    21.8	22.7	3.6	3.3	16.6	-0.5	8.0	5.8
[50] COc1cccc(CNC(=O)CCn2ccc3cc(S(=O)(=O)N4CCC(C)CC4)ccc32)c1
    21.5	-1.6	5.4	1.8	1.8	-0.3	0.5	-2.4
[51] O=S1(=O)N=C2CCCN2C(c2ccc(F)cc2)N1 (configuration not stated)
    -5.5	-1.4	4.9	1.8	-9.9	0.0	3.5	0.6
[52] CN(Cc1ccccc1)C(=S)NC(=O)c1cccs1
    -35.8	16.9	6.4	2.2	3.7	-0.1	-4.3	2.0
[53] CC(=O)C[C@@H](O)CC(=O)[C@H]1OC(=O)CC/C=C\Cc2ccccc21
    .	-11.4	0.2	.	.	1.2	-4.3	-15.6
[54] COc1ccc(NC(=O)N(C)C[C@H]2Oc3c(NC(=O)c4ccncc4)cccc3C(=O)N([C@H](C)CO)C[C@@H]2C)cc1
    .	-5.7	-2.3	.	.	0.0	-0.2	-2.2
[55] Cc1ccccc1CSc1nnc(NC(=O)C2COc3ccccc3O2)s1 (configuration not stated)
    -5.7	-7.1	4.6	-3.3	26.0	-0.4	8.2	-3.4
[56] Cc1ccc(C)c(S(=O)(=O)Nc2ccc(C(=O)NCC(c3ccco3)N3CCCCC3)cc2)c1 (configuration not stated)
    3.8	-1.2	3.4	-1.0	7.4	0.2	5.7	-4.1
[57] O=C(Cc1ccccc1F)Nc1nc2ccccc2[nH]1
    -1.2	11.5	0.0	-1.9	-19.5	-0.4	3.0	3.9
[58] Cc1cc(O)ccc1NC1=CC(=O)CC(C)(C)C1
    29.7	-5.4	4.5	18.8*	-20.5	-0.3	-0.1	-2.4
[59] COc1ccc(CCC(=O)Nc2ccc3c(c2)OCO3)cc1
    5.7	1.4	1.9	3.6	-0.4	-0.6	4.9	-5.5
[60] CC(C)C1Cc2[nH]c(=O)c(C(=O)O)cc2CO1 (configuration not stated)
    -8.8	-2.0	-9.0	4.0	?	0.3	-1.1	-5.0

(further entries)
Screens in order: T cruzi inh	Beta apoptosis	UCH37 inh	RanGTP-Impb inh	Calb FLC	Bfl-1 A1 inh	B2AR ag	LANA-H2A inh
[61] CC(NC(=O)COc1ccc(/C=N/NC(=O)CO)cc1)c1ccccc1 (configuration not stated)
    -6.2	-2.6	.	?	-4.3	-0.1	-7.2	-1.4
[62] COc1ccc(CC(=O)Nc2cccc3ncccc23)cc1OC
    -6.0	-2.5	-0.3	-3.7	-5.4	0.0	3.7	1.8
[63] CCOC(=O)C1=C(N)Oc2cc(O)ccc2C1c1ccc(F)cc1F (configuration not stated)
    15.5	4.9	4.0	10.8	0.2	0.6	7.3	-1.6
[64] Cc1ccc(-c2cc(-c3ccc(C)o3)nc(N)c2C#N)cc1
    16.7	-8.0	-40.5	8.5	4.6	0.5	-7.0	-1.2
[65] Cc1ncc(CN2CCC(C(=O)Nc3cccc(-c4cscn4)c3)CC2)cn1
    16.3	-5.6	5.7	0.1	0.2	0.5	-3.5	0.1
[66] CCN(CC(=O)NC1CCS(=O)(=O)C1)C(=O)C(c1ccccc1)c1ccccc1 (configuration not stated)
    -10.8	-7.6	4.4	-6.1	-19.1	0.5	2.0	2.7

Screens deposited in PubChem by several laboratories.
